Assay outcomes from PubChem.
Mtb bLac sens: beta-lactam sensitization of Mtb H37Rv; inhibition, % at 25 µM; M. tuberculosis H37Rv growth with meropenem, percent inhibition; hits of this screen are not shown here; AID 434955; 330,000 tested, 0.27% active;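 active = about 74% or more and at least 40 points above the plate without the antibiotic, then above 30% in a dose series; inconclusive = first-round hits that could not be retested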;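 note: growth measured after seven days incubation then overnight dye step; 0% = bacteria only wells and 100% = bacteria with antibiotic; twin plates without the antibiotic show which effects depend on it; some results filed as inactive read as strong as hits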
Mtb H37Rv: M. tuberculosis H37Rv growth inhibitors, H37Rv strain (AID 1626); M. tuberculosis H37Rv growth inhibition; higher % means a stronger effect; inhibition, % at 10 µM, or IC50 in µM where a hit was titrated; 220,000 tested, 0.95% active;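 active = confirmed in a dose series; inconclusive = inhibition above 80% but not taken into the dose series; inactive = below 80% or under 30% at every dose of the series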;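 note: bacteria incubated seven days before Alamar blue readout; 0% = bacteria only wells and 100% = bacteria with antibiotic wells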
Arbovirus inh: blocks arbovirus infection | arbovirus infection cell-based antiviral screen | inhibition, % at 10 µM | 200,000 tested, 0.37% active;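 active = inhibition from about 30%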;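 note: bluetongue infection of BSR cells; cell survival read as ATP light after 72 h; 0% = infected wells without compound and 100% = uninfected wells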
RecA splice inh: blocks M. tuberculosis RecA intein splicing | P9WHJ3 | cell-free RecA intein splicing, fluorescence | inhibition, %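 (about 9 µM by stock and volumes)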 | 290,000 tested, 0.75% active | AID 2221; in the data active = inhibition above about 30%; inconclusive = no clear call, values can overlap the other calls;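 note: 0% = vehicle wells and 100% = reference inhibitor control wells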
Target sequence (P9WHJ3 whole entry, looked up, canonical isoform): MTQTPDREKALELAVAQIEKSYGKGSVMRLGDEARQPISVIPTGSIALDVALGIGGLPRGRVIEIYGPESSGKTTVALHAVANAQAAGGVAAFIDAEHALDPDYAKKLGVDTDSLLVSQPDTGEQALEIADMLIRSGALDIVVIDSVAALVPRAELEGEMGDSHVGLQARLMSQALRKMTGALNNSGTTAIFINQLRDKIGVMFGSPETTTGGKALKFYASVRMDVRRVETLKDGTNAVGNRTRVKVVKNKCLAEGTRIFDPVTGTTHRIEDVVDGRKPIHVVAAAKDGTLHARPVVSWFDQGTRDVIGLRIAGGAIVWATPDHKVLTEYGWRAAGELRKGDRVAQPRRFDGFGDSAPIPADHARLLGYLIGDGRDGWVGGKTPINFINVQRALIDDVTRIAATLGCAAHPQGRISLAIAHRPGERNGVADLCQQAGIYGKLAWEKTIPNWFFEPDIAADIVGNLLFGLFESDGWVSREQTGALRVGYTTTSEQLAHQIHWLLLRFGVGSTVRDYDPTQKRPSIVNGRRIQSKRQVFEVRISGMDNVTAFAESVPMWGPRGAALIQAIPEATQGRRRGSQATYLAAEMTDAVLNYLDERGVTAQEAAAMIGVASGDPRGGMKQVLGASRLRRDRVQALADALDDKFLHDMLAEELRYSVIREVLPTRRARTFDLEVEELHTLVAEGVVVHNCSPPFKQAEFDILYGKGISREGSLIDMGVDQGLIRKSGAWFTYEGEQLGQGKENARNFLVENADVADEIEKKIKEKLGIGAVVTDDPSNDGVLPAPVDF
YopH inh: blocks Yersinia enterocolitica YopH tyrosine phosphatase. fluorescence Ex485/Em525. inhibition, %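 (about 10 µM by stock and volumes)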. 140,000 tested, 0.16% active. AID 898;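 active = inhibition of 50% or more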;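 note: controls were vehicle for no effect and minimum signal wells for full effect; inactives centre near -20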
Arbovirus inh repeat: also measured in Arbovirus inh; calls as there; inhibition, %; measured here: 10K subset replicate screen; many hits read low in the repeat;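 first of two repeat runs on a subset; 0% = infected and 100% = uninfected wells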
Starred values were filed as active, the others as inactive; u = inconclusive; x = no result given.

SMILES | Mtb bLac sens | Mtb H37Rv | Arbovirus inh | RecA splice inh | YopH inh | others
O=C(CCl)N1CCCC1c1ccc2c(c1)OCCO2 (stereo not drawn) | 100 | x | x | 74* | x
Fc1cccc(CSc2ncnc3c2oc2ccccc23)c1 | 3 | 5% | -6 | 6.9 | -6
Cc1ccc(CNC(=O)CNS(=O)(=O)c2ccc3nc(C)sc3c2)cc1 | -3 | 0% | -1 | -0.4 | x
Cc1ccc(-c2nc(CS(=O)(=O)CC(=O)NCCCN3CCN(C)CC3)c(C)o2)cc1 | 2 | -2% | 9 | 0.0 | 7 | Arbovirus inh repeat=4
CCOC(=O)C(=CNc1cc(C)nn1-c1ccccc1)C(=O)OCC | -10 | 7% | 11 | x | 26
O=C(Nc1ccc(S(=O)(=O)N2CCCC2)cc1)c1cc(=O)c2ccccc2o1 | 0 | 0% | x | -1.4 | x
CC(=O)N1C(C(=O)O)CSC1c1cccc(C)c1 (stereo not drawn) | -14 | 1% | 4 | -0.7 | -26
CCCCN1C(=O)C(NC(C)=O)c2cc(Br)ccc21 (stereo not drawn) | -4 | 8% | -2 | -3.7 | -15
CCOc1ccc(CCNC(=O)C2CCC(=O)N2CCc2ccccc2)cc1OCC (stereo not drawn) | -3 | 0% | 20 | -1.1 | -19
COCCOC(=O)C1=C(C)NC(=O)NC1c1ccc(OC(=O)c2ccco2)c(OC)c1 (stereo not drawn) | -13 | 2% | 1 | -5.5 | 7 | Arbovirus inh repeat=10
O=C(NCCC(=O)N1CCCC(C(F)(F)F)C1)c1ccccc1Cl (stereo not drawn) | 0 | x | x | 0.8 | x
Cc1nn(C)cc1/C=C/C(=O)c1cccs1 | 37 | 3% | -4 | -3.7 | -20
O=C(COC(=O)Cc1ccccc1F)Nc1ccc2c(c1)OCCO2 | 15 | 6% | 1 | 0.1 | -14
Cc1ccc(/C=C/C(=O)N2CC(=O)Nc3ccccc32)o1 | 5 | -2% | 0 | 0.3 | x
Cc1ccsc1C(=O)Nc1ccc(F)c([N+](=O)[O-])c1 | 7 | 4% | 0 | 1.4 | -26
O=C(Nc1ccc(Oc2cccnc2)cc1)C1CCN(Cc2ccc(F)cc2)CC1 | 4 | x | x | -0.1 | x
Cn1nc(C(F)(F)F)cc1-c1ccc(/C=C(\C#N)C(=O)c2ccccc2)s1 | 6 | -2% | x | x | x
CCOCCCNC(=S)Nc1ccc2nc(N3CCN(CC)CC3)cc(C)c2c1 | 3 | x | x | 0.1 | x
CCn1c(COc2ccc(=O)n(-c3ccccc3)n2)nnc1SC | -1 | 2% | 4 | 0.9 | x
O=C(c1ccc(CS(=O)Cc2ccc(Cl)cc2)o1)N1CCN(c2ccccn2)CC1 (stereo not drawn) | -5 | x | x | 0.2 | x
O=C(NCC(=O)N(c1ccc2c(c1)OCO2)C(C(=O)NC1CCCC1)c1ccncc1)c1ccco1 (stereo not drawn) | 6 | -3% | 14 | -0.9 | -21
CC(=O)Nc1cccc(NC(=O)C2CC(=O)N(CCc3ccc(F)cc3)C2)c1 (stereo not drawn) | 3 | x | x | -0.1 | x
COc1ccc(OC)c(/C=N/NC(=O)CC(=O)NC2CCCCC2)c1 | -5 | x | x | -3.7 | x
Cc1cc(Cl)ccc1OCCCC(=O)Nc1cccc(-n2cnnn2)c1 | u | x | x | 9.5 | x
Cc1nnc(SCC(=O)Nc2ccc(C(N)=O)cc2)n1-c1ccccc1 | 1 | x | x | -3.3 | x
Carrying on:
SMILES | Mtb bLac sens | Mtb H37Rv | Arbovirus inh | RecA splice inh | YopH inh | others
CC1=C(C(=O)OCc2ccc(C)cc2)C(c2ccc(O)c([N+](=O)[O-])c2)NC(=O)N1 (stereo not drawn) | -3 | -1% | 27 | 0.9 | x
CC(C)C(Nc1ncnc2c1oc1ccccc12)C(=O)O (stereo not drawn) | -9 | -4% | -1 | -1.6 | x
O=C(COc1cccc(Cl)c1Cl)Nc1ccc2c(c1)CCC2 | 5 | -7% | -4 | 11 | -29
CC1(C)Oc2ccc(C(=O)Nc3ccccc3F)cc2N(CC(=O)N2CCOCC2)C1=O | -6 | x | x | 7.0 | x
CCOC(=O)NNc1ccc(C(F)(F)F)cn1 | -5 | -9% | x | -3.0 | x
COc1cccc2oc3cc(C#Cc4ccccn4)ccc3c(=O)c12 | 49 | x | x | -4.0 | x
COc1ccc(C2C(C#N)=C(N)Oc3c2ccc2cccnc32)cc1OC (stereo not drawn) | -1 | 3% | -18 | -1.2 | x
CC(C)(C)c1ccc(C(=O)N/C(=C\c2ccco2)C(=O)Nc2ccccc2C(=O)O)cc1 | 10 | x | x | 6.2 | x
O=C(NCCc1ccccc1F)C1CCCN(c2nc3ccccc3s2)C1 (stereo not drawn) | 7 | x | x | -1.1 | x
CCOC(=O)C1C(C)=CC(=O)CC1c1ccco1 (stereo not drawn) | -12 | -2% | -5 | -1.7 | -19
Nc1nc(Nc2ccccc2)sc1C(=O)c1ccccc1 | 75 | 36% | x | 8.3 | x
Cc1c(-n2c(O)c(C3=c4ccccc4=NC3=O)sc2=S)c(=O)n(-c2ccccc2)n1C | -3 | -2% | -10 | -1.3 | x
COC(=O)c1ccc(CN2CCCC(C(=O)Nc3cccc(-n4cccn4)c3)C2)cc1 (stereo not drawn) | 70 | x | x | -1.0 | x
CCOc1ccccc1NC(=O)CCn1cccc1 | -6 | -4% | 1 | -3.7 | x
CC1CCCN(C(=S)Nc2ccc(F)cc2)C1 (stereo not drawn) | -3 | 23% | 4 | 1.0 | x
Cc1cc(C)c2c(c1)/C(=N/NS(=O)(=O)c1ccc(Br)cc1)CCC2 | -6 | x | -7 | -1.7 | 9
Cc1ccc(-c2nnn(CC(=O)N(CC(=O)NCc3ccccc3)c3cccc(C)c3C)n2)o1 | -10 | 7% | 0 | 5.0 | -13
CC(O)c1cccc(NC(=O)CC(c2ccccc2)c2ccccc2)c1 (stereo not drawn) | -6 | x | x | 2.8 | x
CCOC(=O)c1oc2ccccc2c1CSc1nnnn1-c1ccc(OC)cc1 | 3 | -4% | 9 | 3.6 | 4
CCCc1c(NC(=O)Nc2ccc(Cl)cc2Cl)cnn1-c1ccccc1 | -5 | -9% | x | 0.2 | x
COc1cccc(C(=O)NCCS(=O)(=O)N2CC(C)CC(C)C2)c1 (stereo not drawn) | -7 | x | x | 2.5 | x
O=C(COc1ccc(Cl)cc1)Nc1ccc(C(=O)NCc2cccnc2)cc1 | -9 | 0% | 18 | 0.1 | -6
CC1(NC(=O)c2cccc(S(=O)(=O)N3CCN(c4ccccc4)CC3)c2)CCS(=O)(=O)C1 (stereo not drawn) | -17 | x | x | -0.1 | x
C/C=C1/CN2C3CC1C(CO)(C(=O)OC)C2Cc1c3n(C)c2ccccc12 (stereo not drawn) | -11 | -5% | x | 0.8 | x
Fc1ccc(/C=N/Nc2ccccn2)cc1 | 1 | -4% | -9 | 5.0 | -10

The final 5 compounds of the part before are carried over, then new ones follow.
SMILES | Mtb bLac sens | Mtb H37Rv | Arbovirus inh | RecA splice inh | YopH inh | others
COc1cccc(C(=O)NCCS(=O)(=O)N2CC(C)CC(C)C2)c1 (stereo not drawn) | -7 | x | x | 2.5 | x
O=C(COc1ccc(Cl)cc1)Nc1ccc(C(=O)NCc2cccnc2)cc1 | -9 | 0% | 18 | 0.1 | -6
CC1(NC(=O)c2cccc(S(=O)(=O)N3CCN(c4ccccc4)CC3)c2)CCS(=O)(=O)C1 (stereo not drawn) | -17 | x | x | -0.1 | x
C/C=C1/CN2C3CC1C(CO)(C(=O)OC)C2Cc1c3n(C)c2ccccc12 (stereo not drawn) | -11 | -5% | x | 0.8 | x
Fc1ccc(/C=N/Nc2ccccn2)cc1 | 1 | -4% | -9 | 5.0 | -10
COc1ccc(NC(=O)C(=O)NCC(=O)Nc2cc(OC)ccc2OC)cc1 | 2 | x | x | -3.6 | x
Cc1cc(OCC(=O)Nc2ccc3oc(=O)ccc3c2)ccc1Cl | 6 | x | x | 0.3 | x
S=C(NCC1CCCO1)Nc1ccccc1Cl (stereo not drawn) | 1 | -7% | 0 | 1.2 | -32
CC1(C)Oc2ccc3ccc(=O)oc3c2-c2cn[nH]c21 | -14 | -4% | -21 | 3.9 | 11
OCCOCCn1c(C(CO)Nc2nc(-c3cccc(Br)c3)cs2)nc2ccccc21 (stereo not drawn) | -5 | -4% | x | 11 | x
CC1CCN(CC(C)CNC(=O)c2cc(-c3ccccn3)nc3ccccc23)CC1 (stereo not drawn) | -11 | -3% | -1 | 1.7 | -38
CC(=O)Nc1ccc2nc(-c3ccccc3)cn2c1 | -9 | 4% | -4 | -0.8 | -25
CC(=O)N1CCOc2ccc(S(=O)(=O)N3CCC(C(=O)Nc4ccc(F)cc4)CC3)cc21 | -4 | x | x | -1.2 | x
CCc1nnc(NS(=O)(=O)c2ccc(N=Cc3c(C)[nH]n(-c4cccc(Cl)c4)c3=O)cc2)s1 | 10 | 5% | -10 | -3.3 | -17
COc1cc(OC)cc(C(=O)NCc2n[nH]c(=S)n2-c2ccccc2OC)c1 | -2 | -4% | 5 | 1.9 | -16
O=S(=O)(NCc1ccccc1)c1cccc2nonc12 | 3 | 10% | 5 | -3.1 | -29
CCCC(N)CCCCCC(=O)O (stereo not drawn) | x | -7% | -2 | -1.4 | -12
O=C(CSc1ccccn1)N/N=C/c1cc([N+](=O)[O-])ccc1O | 36 | -3% | x | -1.7 | x
O=C(/C=C/NNC(=O)c1ccccc1)c1ccc([N+](=O)[O-])cc1 | 57 | 3% | -14 | -0.7 | x
COc1cc2nc(Nc3ccc(F)cc3)nc(N)c2cc1OC | 11 | x | x | 9.2 | x
CCOc1ccc(C(C(=O)NC2CCCC2)N(C(=O)c2snc(C(N)=O)c2N)C2CCCC2)cc1 (stereo not drawn) | -1 | x | x | 4.9 | x
Cc1ccccc1NC(=O)c1nc2nccc(C)n2n1 | 3 | -6% | 12 | -2.5 | x
O=C(Cn1nc(Cc2ccncc2)c2ccccc2c1=O)Nc1cccnc1Cl | -5 | 14% | x | -1.0 | x
CC1=NNC(=O)C1CCC(=O)N/N=C/c1ccc(Cl)cc1Cl (stereo not drawn) | -4 | 3% | x | -2.4 | x
Cc1ccc(S(=O)(=O)NC(=NC2CCCCC2)c2ccc(F)cc2)cc1 | 2 | x | x | -1.5 | x
COc1ccc(NS(=O)(=O)c2coc(C(N)=O)c2)cc1Cl | u | -3% | 2 | 1.1 | -9 | Arbovirus inh repeat=5
COc1cc(NC(=S)N2CCN(C)CC2)c(OC)cc1Cl | -3 | -1% | 8 | 2.6 | x
Cc1nc2ncnn2c(C)c1CCC(=O)N1CC(C)CC(C)C1 (stereo not drawn) | -7 | -8% | 10 | x | -7
Cc1ccc(NC(=O)c2ccc(-n3cccn3)nc2)cc1 | -3 | 0% | 15 | -1.5 | x
CCOc1ccccc1NC(=O)CSc1nnc(CNC(=O)c2cc(OC)c(OC)c(OC)c2)o1 | -2 | x | x | -8.3 | x
Next section:
SMILES | Mtb bLac sens | Mtb H37Rv | Arbovirus inh | RecA splice inh | YopH inh | others
Nc1c(S(=O)(=O)c2cccs2)c2nc3ccccc3nc2n1CCc1ccccc1 | 74 | x | -32 | -24 | -17
O=C(Nc1ccccc1)C1=C[C@@H](c2csc3ccccc23)C[C@@H](OCc2ccc(CO)cc2)O1 | 67 | 75% | -16 | 4.7 | x
Cc1ccc(-c2nc3ccccn3c2C=O)cc1 | -2 | 0% | -5 | 7.8 | x
CSCCC(NC(=O)c1ccccc1)C(=O)N1CCN(C(c2ccccc2)c2ccccc2)CC1 (stereo not drawn) | 33 | x | x | -0.7 | x
COc1ccc(C(=O)n2nc(-c3ccc(OC)cc3)nc2N)cc1 | -5 | 6% | 5 | -1.9 | -15
Cc1ccccc1CSCc1nc(N)nc(Nc2ccccc2C)n1 | -1 | 12% | -2 | -2.3 | x
CC(NC(=O)c1ccco1)C(=O)OCC(=O)c1ccc(Cl)s1 (stereo not drawn) | 1 | -4% | 3 | 2.1 | x
Cc1nn(-c2cc(C(F)(F)F)ccc2Cl)c2nc(C(F)(F)F)[nH]c(=O)c12 | 14 | 14% | 42* | -0.8 | -26
CC(C)(C)c1ccc(C(=O)NCc2cccnc2)cc1 | 4 | -4% | -6 | -0.9 | -13
CCOc1cc(/C=C2/C(=N)N3C(=NC2=O)SN=C3S(C)(=O)=O)ccc1OS(=O)(=O)c1ccccc1 | 2 | x | x | 9.9 | x
COc1cccc(/C=C/C(=O)c2c(O)cc(C)oc2=O)c1O | 99 | -3% | 10 | -3.1 | -2

3 structures out of the list, arranged by length of the SMILES, highest first.
SMILES | Mtb bLac sens | Mtb H37Rv | Arbovirus inh | RecA splice inh | YopH inh | others
COc1ccc(C(=O)n2nc(-c3ccc(OC)cc3)nc2N)cc1 | -5 | 6% | 5 | -1.9 | -15
COc1cccc(/C=C/C(=O)c2c(O)cc(C)oc2=O)c1O | 99 | -3% | 10 | -3.1 | -2
Cc1ccc(-c2nc3ccccn3c2C=O)cc1 | -2 | 0% | -5 | 7.8 | x

An excerpt. The share of hits here may be higher or lower than overall.
